High-throughput results (PubChem BioAssay)
PKD1 inh: inhibitors of human PKD1 kinase, biochemical, fluorescence polarization; Serine/threonine-protein kinase D1 (Homo sapiens), Q15139; actives 0.056% (n = 200,000); PKD1 kinase fluorescence polarization assay; inhibition, %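 (about 10 µM by stock and volumes)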; AID 797, 2007;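 active = inhibition of 50% or more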;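 note: controls were vehicle for no effect and a reference inhibitor for full effect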
Target sequence (Q15139 whole entry, looked up): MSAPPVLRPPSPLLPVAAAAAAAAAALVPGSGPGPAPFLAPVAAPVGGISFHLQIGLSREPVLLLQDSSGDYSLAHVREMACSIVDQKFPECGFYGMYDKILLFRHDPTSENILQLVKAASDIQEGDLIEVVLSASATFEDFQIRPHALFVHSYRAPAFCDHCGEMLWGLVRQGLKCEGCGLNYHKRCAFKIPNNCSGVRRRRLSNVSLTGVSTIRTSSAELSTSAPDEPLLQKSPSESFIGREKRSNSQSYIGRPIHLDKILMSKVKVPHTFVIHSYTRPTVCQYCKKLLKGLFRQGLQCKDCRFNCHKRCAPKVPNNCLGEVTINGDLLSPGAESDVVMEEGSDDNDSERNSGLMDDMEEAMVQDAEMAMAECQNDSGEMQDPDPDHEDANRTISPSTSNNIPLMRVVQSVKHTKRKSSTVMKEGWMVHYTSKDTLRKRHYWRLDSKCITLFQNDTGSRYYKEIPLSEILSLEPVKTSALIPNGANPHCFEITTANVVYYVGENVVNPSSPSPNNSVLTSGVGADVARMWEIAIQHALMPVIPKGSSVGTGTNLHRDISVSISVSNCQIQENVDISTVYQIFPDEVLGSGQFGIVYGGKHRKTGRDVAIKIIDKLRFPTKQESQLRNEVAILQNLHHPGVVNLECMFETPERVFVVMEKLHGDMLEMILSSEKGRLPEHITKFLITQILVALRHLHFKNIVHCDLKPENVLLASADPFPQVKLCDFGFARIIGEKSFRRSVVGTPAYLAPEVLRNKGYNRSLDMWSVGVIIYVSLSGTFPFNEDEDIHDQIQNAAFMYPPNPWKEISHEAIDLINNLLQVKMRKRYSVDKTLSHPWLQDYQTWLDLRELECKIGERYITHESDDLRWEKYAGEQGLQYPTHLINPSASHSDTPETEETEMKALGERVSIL
HSV augment: enhancers of HSV replication in host cells, fold increase, host cell viability; AID 1956, 2009; HSV replication augmentation in cells; actives 0.005% (n = 220,000); maximum fold increase;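 active = peak rise of 1.5-fold or more in the series; tested in PC3 cells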;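 note: first round at 10 µM; read as green reporter fluorescence; hits show the peak of a series up to 25 µM; 1 = signal of infected wells without compound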
RGS16-Gao: modulators of RGS16 binding to Galphao, primary screen, biochemical, human proteins, multiplexed bead flow cytometry; Regulator of G-protein signaling 16 (Homo sapiens) + Guanine nucleotide-binding protein …; bead-based flow cytometry RGS16-Galphao binding, fluorescence; actives lie on both sides; binding response (% of control), % at 10 µM; actives 0.38% (n = 220,000);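 active = below 25% or above 175%, edge rows of some plates excepted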;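 note: Galphao activated by GDP with aluminum fluoride before binding; 100% = wells without compound and 0% = beads without RGS; some results beyond the cut were filed as inactive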
GALR2 ag: GALR2 receptor agonists, primary screen, cell-based. actives 0.48% (n = 140,000). Galanin receptor type 2 (Homo sapiens), O43603. GALR2-expressing cells, agonist activation read-out. activation, %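 (tested at 5 µM)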;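 active = above mean plus 3 SD of all compounds, about 5% in these data, not always enough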;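 note: 0% = vehicle buffer wells and 100% = reference agonist at full effect; tested in CHO reporter cells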
Insulin prom inh: inhibitors of insulin promoter-driven GFP, primary screen, imaging, TRM-6 cells (human fetal islet line), eGFP reporter, cell count; actives 0.9% (n = 130,000); AID 1273, 2008; reporter expression induced with tamoxifen; inhibition, % at 2 µM;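 active = inhibition above the mean plus 3 SD, with well images judged a real hit on visual review, cut at about 60% in these data, passing the limit was not always enough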
Insulin prom inh cell count: recorded beside Insulin prom inh, whose call it bears; normalized cell count, %; measured here: cell count, toxicity; reference of the scale not given here;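 cells exposed to compound for 48 h; stained nuclei by imaging scaled within each plate; lower means fewer cells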
HSV augment primary fold: further read-out of HSV augment, marked with its call; fold increase; compound at 10 µM; measured here: primary screen fold increase 10 uM; tested in PC3 cells;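 GFP signal in the first replicate; 1 = infected wells without compound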
* = called active by the depositor.

Results for COc1ccc(CNC(=O)C2CCN(S(=O)(=O)c3c(C)n[nH]c3C)CC2)cc1 ?
PKD1 inh: -1; HSV augment: inactive; RGS16-Gao: 95; GALR2 ag: -5.4; HSV augment primary fold: 1.1

How did O=[N+]([O-])c1ccc(CSc2nnc(Cc3ccccc3)o2)cc1 do in these assays?
HSV augment: inactive; RGS16-Gao: 105; HSV augment primary fold: 0.89

How did Cc1ccc(NC(=O)CSc2nnc(CNC(=O)c3ccco3)o2)cc1 do in these assays?
PKD1 inh: 0; HSV augment: inactive; RGS16-Gao: 91; HSV augment primary fold: 0.91

What do the screens show for `Cc1ccc(C2CC(c3ccccc3)=NN2c2ccccc2)o1` (stereo not given)?
PKD1 inh: -1; HSV augment: inactive; RGS16-Gao: 106; GALR2 ag: 7.1*; HSV augment primary fold: 1.2

Results for CC1CC(C)CN(S(=O)(=O)c2ccc(NC(=S)NC(=O)c3ccccc3)cc2)C1 (stereo not given) ?
PKD1 inh: -2; HSV augment: inactive; RGS16-Gao: 117; GALR2 ag: -2.1; Insulin prom inh: 33; Insulin prom inh cell count: 91; HSV augment primary fold: 0.96

Results for CCC(=O)NC(NC(=S)Nc1ccccc1Br)C(Cl)(Cl)Cl (stereo not given) ?
PKD1 inh: -14; RGS16-Gao: 111; GALR2 ag: -0.4; Insulin prom inh: 0; Insulin prom inh cell count: 127

How did COC(=O)c1[nH]c2ccc(Cl)cc2c1NC(=O)CN1CCC(C(N)=O)CC1 do in these assays?
PKD1 inh: -6; HSV augment: inactive; RGS16-Gao: 97; GALR2 ag: -1.9; Insulin prom inh: 28; Insulin prom inh cell count: 116; HSV augment primary fold: 1.1

What do the screens show for `COc1ccc(N2C(=O)CC(Nc3ccc(F)cc3)C2=O)c([N+](=O)[O-])c1` (stereo not given)?
PKD1 inh: -3; HSV augment: inactive; RGS16-Gao: 100; Insulin prom inh: 26; Insulin prom inh cell count: 76; HSV augment primary fold: 1.1

How did CCn1c(SCC(=O)Nc2ccccc2)nc2nc3c(cc2c1=O)COC(C)(C)C3 do in these assays?
HSV augment: inactive; RGS16-Gao: 104; HSV augment primary fold: 0.91

Results for COc1ccc(-c2nc(C#N)c(N3CC(C)OC(C)C3)o2)cc1OC (stereo not given) ?
PKD1 inh: -4; HSV augment: inactive; RGS16-Gao: 111; GALR2 ag: -0.7; Insulin prom inh: -37; Insulin prom inh cell count: 85; HSV augment primary fold: 0.9

How did Cc1ccc(-c2nc(=S)c3c(n2CC2CCCO2)CC(C)(C)OC3)cc1 (stereo not given) do in these assays?
PKD1 inh: -10; HSV augment: inactive; RGS16-Gao: 86; GALR2 ag: -0.6; Insulin prom inh: -7; Insulin prom inh cell count: 135; HSV augment primary fold: 0.82

How did O=C(O)C1CCN(C(=O)c2ccc(Cl)cc2)CC1 do in these assays?
PKD1 inh: 1; HSV augment: inactive; RGS16-Gao: 88; GALR2 ag: -1.7; Insulin prom inh: 0; Insulin prom inh cell count: 122; HSV augment primary fold: 0.88

What do the screens show for `O=c1oc2ccccc2nc1/C=C(O)/C=C\c1ccccc1`?
PKD1 inh: 0; HSV augment: inactive; RGS16-Gao: 114; GALR2 ag: -3.1; Insulin prom inh: -27; Insulin prom inh cell count: 76; HSV augment primary fold: 1.1

What do the screens show for `Cc1nn(-c2ccccc2)c(N)c1Sc1ccc([N+](=O)[O-])cc1`?
PKD1 inh: -17; HSV augment: inactive; RGS16-Gao: 100; GALR2 ag: -0.8; HSV augment primary fold: 1

What do the screens show for `COc1ccc2c(c1OC)C(=O)OC2CC(=O)c1ccc(O)c(O)c1` (stereo not given)?
PKD1 inh: 1; HSV augment: inactive; RGS16-Gao: 80; GALR2 ag: -1.6; Insulin prom inh: 7; Insulin prom inh cell count: 104; HSV augment primary fold: 1

Results for O=C(NC1(C(F)(F)F)NC(=O)N(Cc2ccccc2)C1=O)c1cccnc1 (stereo not given) ?
PKD1 inh: 3; HSV augment: inactive; RGS16-Gao: 103; GALR2 ag: -2.4; Insulin prom inh: 21; Insulin prom inh cell count: 74; HSV augment primary fold: 0.86

How did C=C1CN(Cc2ccccc2)S(=O)(=O)c2ccccc21 do in these assays?
HSV augment: inactive; RGS16-Gao: 80; HSV augment primary fold: 1.2

What do the screens show for `COc1ccc(S(=O)(=O)N2CCOC2CNC(=O)C(=O)NCCc2c[nH]c3ccccc23)cc1` (stereo not given)?
PKD1 inh: -6; RGS16-Gao: 102; GALR2 ag: -0.5; Insulin prom inh: 7; Insulin prom inh cell count: 116

How did O=Cc1c(F)cccc1N1CCCC1 do in these assays?
PKD1 inh: 11; HSV augment: inactive; RGS16-Gao: 97; HSV augment primary fold: 1.1

How did COC(=O)C(Cc1ccc(OC(=O)c2ccc(Cl)cc2)cc1)N1Cc2ccccc2C1=O (stereo not given) do in these assays?
PKD1 inh: -13; HSV augment: inactive; RGS16-Gao: 83; GALR2 ag: -1.4; Insulin prom inh: 22; Insulin prom inh cell count: 73; HSV augment primary fold: 1.1

Results for CCOc1cc(/C=N/NC(=O)CN2CCOCC2)ccc1OCc1ccc(Cl)cc1 ?
PKD1 inh: -10; HSV augment: inactive; RGS16-Gao: 91; GALR2 ag: -3.7; Insulin prom inh: -46; Insulin prom inh cell count: 106; HSV augment primary fold: 0.99

What do the screens show for `Cc1ccc(CCN2CC(C(=O)NCc3ccc4c(c3)OCO4)CC2=O)cc1` (stereo not given)?
HSV augment: inactive; RGS16-Gao: 103; HSV augment primary fold: 0.83

How did COc1ccc(-c2nnc(SCC(=O)Nc3nncs3)o2)cc1 do in these assays?
PKD1 inh: -8; HSV augment: inactive; RGS16-Gao: 92; Insulin prom inh: 45; Insulin prom inh cell count: 121; HSV augment primary fold: 0.98

How did CCOC(=O)N1CCN(S(=O)(=O)Cc2ccccc2)CC1 do in these assays?
PKD1 inh: 6; HSV augment: inactive; RGS16-Gao: 100; GALR2 ag: -1.4; Insulin prom inh: -18; Insulin prom inh cell count: 112; HSV augment primary fold: 0.97

Results for CCS(=O)(=O)Nc1ccc2[nH]c(=O)[nH]c2c1 ?
PKD1 inh: -1; HSV augment: inactive; RGS16-Gao: 97; HSV augment primary fold: 1.2

Results for CCCS(=O)(=O)N1CCN(Cc2ccccc2C(F)(F)F)CC1 ?
PKD1 inh: -8; HSV augment: inactive; RGS16-Gao: 91; GALR2 ag: -1.3; HSV augment primary fold: 1

Results for O=C(Nc1ccc2oc(-c3ccccc3)nc2c1)c1cccs1 ?
PKD1 inh: 1; HSV augment: inactive; GALR2 ag: -0.7; Insulin prom inh: 7; Insulin prom inh cell count: 92; HSV augment primary fold: 0.95

Results for Clc1ccc(SCNc2ccccc2Cl)cc1 ?
HSV augment: inactive; RGS16-Gao: 94; HSV augment primary fold: 1.1

Results for NC(=O)N/N=C/c1cn(-c2ccccc2)nc1-c1cccs1 ?
PKD1 inh: -2; HSV augment: inactive; RGS16-Gao: 100; HSV augment primary fold: 0.7

How did CCOc1ccccc1OCCCC(=O)NC1CCCc2ccccc21 (stereo not given) do in these assays?
PKD1 inh: 3; HSV augment: inactive; RGS16-Gao: 98; GALR2 ag: -1.1; HSV augment primary fold: 0.96

What do the screens show for `COc1ccc(C(=O)C(CO)Oc2ccccc2OC)cc1OC` (stereo not given)?
PKD1 inh: -4; RGS16-Gao: 100; GALR2 ag: -1.7

How did COc1ccc(-n2cc(CNCCCN3CCCC3=O)c(-c3ccccc3Cl)n2)cc1 do in these assays?
PKD1 inh: -7; HSV augment: inactive; RGS16-Gao: 99; HSV augment primary fold: 0.94

What do the screens show for `O=C(/C=C/Nc1cccc(F)c1)c1ccco1`?
PKD1 inh: 3; HSV augment: inactive; RGS16-Gao: 104; GALR2 ag: 1.5; Insulin prom inh: 30; Insulin prom inh cell count: 90; HSV augment primary fold: 0.88

How did O=C(c1ccc(Cl)cc1Cl)c1ncc(C(F)(F)F)cc1Cl do in these assays?
PKD1 inh: -7; HSV augment: inactive; RGS16-Gao: 103; GALR2 ag: -2.2; Insulin prom inh: 0; Insulin prom inh cell count: 86; HSV augment primary fold: 1.1

What do the screens show for `COC(=O)c1sccc1-n1cccc1C(=O)C(=O)N1CCCC1`?
PKD1 inh: 25; HSV augment: inactive; RGS16-Gao: 93; GALR2 ag: -1.2; Insulin prom inh: 30; Insulin prom inh cell count: 76; HSV augment primary fold: 0.93

Results for CC(C)Sc1nc2ccccc2[nH]1 ?
PKD1 inh: -1; HSV augment: inactive; RGS16-Gao: 99; Insulin prom inh: 78*; Insulin prom inh cell count: 165*; HSV augment primary fold: 0.97

What do the screens show for `Cc1cc(-c2nnc3n2N=C(c2ccccc2)CS3)n[nH]1`?
HSV augment: inactive; RGS16-Gao: 96; HSV augment primary fold: 1.2

What do the screens show for `O=C1NC2(CCCCC2)N(C(=O)c2ccccc2)C2=C1CCCC2`?
PKD1 inh: -1; HSV augment: inactive; RGS16-Gao: 100; HSV augment primary fold: 0.96

Results for COC(=O)COc1ccc(S(=O)(=O)NCC2CCCO2)cc1Cl (stereo not given) ?
PKD1 inh: -4; HSV augment: inactive; RGS16-Gao: 103; GALR2 ag: -0.1; Insulin prom inh: 41; Insulin prom inh cell count: 41; HSV augment primary fold: 1.2

Results for CCN(CC)C(=O)C(=O)c1cccn1-c1c(Cl)cccc1C#N ?
PKD1 inh: 2; HSV augment: inactive; RGS16-Gao: 113; Insulin prom inh: -7; Insulin prom inh cell count: 108; HSV augment primary fold: 1.1

What do the screens show for `Cn1c(=O)c2c(nc(NCCCO)n2C/C=C/c2ccccc2)n(C)c1=O`?
PKD1 inh: -5; HSV augment: inactive; RGS16-Gao: 97; GALR2 ag: 0.3; Insulin prom inh: 19; Insulin prom inh cell count: 77; HSV augment primary fold: 0.79

Results for CCc1ccc(CN(C)C(=O)CCc2nnc(CCc3ccccc3OC)o2)nc1 ?
PKD1 inh: -1; HSV augment: inactive; RGS16-Gao: 96; HSV augment primary fold: 0.97

What do the screens show for `COc1cc(C2C3C(=O)N(c4ccc(F)cc4)C(=O)C3ON2c2ccccc2)ccc1O` (stereo not given)?
PKD1 inh: 2; HSV augment: inactive; RGS16-Gao: 62; GALR2 ag: -0.7; HSV augment primary fold: 0.96

Results for COc1cc([N+](=O)[O-])ccc1N1C(=O)C2C3C=CC(C4CC34)C2C1=O (stereo not given) ?
PKD1 inh: -4; HSV augment: inactive; RGS16-Gao: 103; Insulin prom inh: -6; Insulin prom inh cell count: 99; HSV augment primary fold: 0.98

Results for COc1cccc(NC(=O)CCC(=O)Nc2cccc(OC)c2)c1 ?
PKD1 inh: -3; HSV augment: inactive; RGS16-Gao: 116; GALR2 ag: 0.1; Insulin prom inh: -37; Insulin prom inh cell count: 112; HSV augment primary fold: 0.93

How did CCc1ccccc1NC(=O)c1cc(=O)c2ccccc2o1 do in these assays?
PKD1 inh: -2; HSV augment: inactive; RGS16-Gao: 102; Insulin prom inh: 42; Insulin prom inh cell count: 115; HSV augment primary fold: 1

Entries shown so far that contain an NH in an aromatic ring:
Results for COc1ccc(CNC(=O)C2CCN(S(=O)(=O)c3c(C)n[nH]c3C)CC2)cc1 ?
PKD1 inh: -1; HSV augment: inactive; RGS16-Gao: 95; GALR2 ag: -5.4; HSV augment primary fold: 1.1

How did COC(=O)c1[nH]c2ccc(Cl)cc2c1NC(=O)CN1CCC(C(N)=O)CC1 do in these assays?
PKD1 inh: -6; HSV augment: inactive; RGS16-Gao: 97; GALR2 ag: -1.9; Insulin prom inh: 28; Insulin prom inh cell count: 116; HSV augment primary fold: 1.1

What do the screens show for `COc1ccc(S(=O)(=O)N2CCOC2CNC(=O)C(=O)NCCc2c[nH]c3ccccc23)cc1` (stereo not given)?
PKD1 inh: -6; RGS16-Gao: 102; GALR2 ag: -0.5; Insulin prom inh: 7; Insulin prom inh cell count: 116

Results for CCS(=O)(=O)Nc1ccc2[nH]c(=O)[nH]c2c1 ?
PKD1 inh: -1; HSV augment: inactive; RGS16-Gao: 97; HSV augment primary fold: 1.2

Results for CC(C)Sc1nc2ccccc2[nH]1 ?
PKD1 inh: -1; HSV augment: inactive; RGS16-Gao: 99; Insulin prom inh: 78*; Insulin prom inh cell count: 165*; HSV augment primary fold: 0.97

What do the screens show for `Cc1cc(-c2nnc3n2N=C(c2ccccc2)CS3)n[nH]1`?
HSV augment: inactive; RGS16-Gao: 96; HSV augment primary fold: 1.2

An unsorted share of the library (roughly 1.3% active in at least one column).
